Screening data: PubChem, several laboratories
Mtb H37Rv: M. tuberculosis H37Rv growth inhibitors, H37Rv strain (AID 1626); M. tuberculosis H37Rv growth inhibition; higher % means a stronger effect; inhibition, % at 10 µM, or IC50 in µM where a hit was titrated; 220,000 compounds, 0.95% hits;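 active means confirmed in a dose series; inconclusive means inhibition above 80% but not taken into the dose series; inactive means below 80% or under 30% at every dose of the series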;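 further: bacteria incubated seven days before Alamar blue readout; 0% = bacteria only wells and 100% = bacteria with antibiotic wells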
RecA splice inh: Mtb RecA intein splicing inhibition; 290,000 compounds, 0.75% hits; cell-free RecA intein splicing, fluorescence; P9WHJ3; inhibition, %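 (about 9 µM by stock and volumes)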; in the data active means inhibition above about 30%; inconclusive means no clear call, values can overlap the other calls;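 further: 0% = vehicle wells and 100% = reference inhibitor control wells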
Target sequence (P9WHJ3 whole entry, looked up, canonical isoform): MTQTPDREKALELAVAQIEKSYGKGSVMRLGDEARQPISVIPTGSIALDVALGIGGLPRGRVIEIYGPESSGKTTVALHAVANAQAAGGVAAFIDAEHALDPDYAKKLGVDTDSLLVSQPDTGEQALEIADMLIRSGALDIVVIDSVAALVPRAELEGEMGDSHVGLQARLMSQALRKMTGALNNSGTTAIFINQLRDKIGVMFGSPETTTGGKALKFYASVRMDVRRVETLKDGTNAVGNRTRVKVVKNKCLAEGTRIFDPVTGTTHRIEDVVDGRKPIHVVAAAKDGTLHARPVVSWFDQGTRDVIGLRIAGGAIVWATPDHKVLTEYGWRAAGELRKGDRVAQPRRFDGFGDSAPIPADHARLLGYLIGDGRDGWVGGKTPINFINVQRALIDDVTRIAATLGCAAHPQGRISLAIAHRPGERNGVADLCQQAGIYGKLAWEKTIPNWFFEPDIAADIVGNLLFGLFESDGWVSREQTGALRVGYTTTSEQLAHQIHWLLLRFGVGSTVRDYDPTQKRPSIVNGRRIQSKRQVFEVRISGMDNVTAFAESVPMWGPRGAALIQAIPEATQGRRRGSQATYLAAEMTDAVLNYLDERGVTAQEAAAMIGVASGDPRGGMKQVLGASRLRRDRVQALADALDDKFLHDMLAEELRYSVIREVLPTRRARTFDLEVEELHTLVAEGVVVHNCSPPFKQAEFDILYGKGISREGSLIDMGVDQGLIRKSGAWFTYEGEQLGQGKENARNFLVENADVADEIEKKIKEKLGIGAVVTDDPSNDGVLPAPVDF
Arbovirus anti: blocks arbovirus infection. 200,000 compounds, 0.37% hits. arbovirus infection cell-based antiviral screen. inhibition, % at 10 µM;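 active means inhibition from about 30%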;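 further: bluetongue infection of BSR cells; cell survival read as ATP light after 72 h; 0% = infected wells without compound and 100% = uninfected wells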
YopH PTP inh: blocks Yersinia enterocolitica YopH tyrosine phosphatase; AID 898; fluorescence Ex485/Em525; inhibition, %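 (about 10 µM by stock and volumes)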; 140,000 compounds, 0.16% hits;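 active means inhibition of 50% or more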;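 further: controls were vehicle for no effect and minimum signal wells for full effect; inactives centre near -20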
Mtb betalactam: beta-lactam sensitization of Mtb H37Rv; M. tuberculosis H37Rv growth with meropenem, percent inhibition; hits of this screen are not shown here; inhibition, % at 25 µM; 330,000 compounds, 0.27% hits; AID 434955;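 active means about 74% or more and at least 40 points above the plate without the antibiotic, then above 30% in a dose series; inconclusive means first-round hits that could not be retested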;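 further: growth measured after seven days incubation then overnight dye step; 0% = bacteria only wells and 100% = bacteria with antibiotic; twin plates without the antibiotic show which effects depend on it; some results filed as inactive read as strong as hits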
* hit, by the source's call; ? = inconclusive; nt = not tested or not shown.

Under each structure – Mtb H37Rv, RecA splice inh, Arbovirus anti, YopH PTP inh, Mtb betalactam
- COc1cc(OC)cc(C(=O)NC(=S)Nc2ccc3oc(=O)ccc3c2)c1
 : nt, -1.3, nt, nt, 16
- CCOC(=O)C1CCN(CC(C)(C)NS(=O)(=O)c2ccccc2)CC1
 : nt, -0.8, nt, nt, 1
- Cc1ccccc1C(=O)N/N=C/c1ccncc1
 : -8%, 1.8, 4, -34, -18
- COc1ccc(NC(=O)c2ccc(COc3ccccc3OC)o2)cc1OC
 : 4%, 1.7, -12, -34, -6
- Cc1ccccc1S(=O)(=O)NC1OC(=O)C(Cl)=C1Cl (stereo unspecified)
 : 0%, -1.3, 1, -3, 14
- Cc1nc([N+](=O)[O-])c(NCCO)n1Cc1ccccc1
 : 3%, 3.4, 7, nt, 1
- O=C(CCC(NC(=O)OCc1ccccc1)C(=O)O)OCc1ccccc1 (stereo unspecified)
 : nt, 1.1, nt, nt, 8
- O=C(CSc1nc(-c2ccc(F)cc2)cs1)NC(=O)NCc1ccco1
 : 4%, 4.1, 6, -48, -4
- CC(C)CSc1nnc(N)s1
 : 73%, 2.9, 1, -18, 93
- CC(=O)Nc1c(NCC(C)C)c2ccccc2oc1=O
 : -11%, -1.4, 3, -14, -3
- COc1cc(NC(=S)N2CCCC(C)C2)c(OC)cc1Cl (stereo unspecified)
 : 4%, 4.0, 6, nt, 6
- O=c1ccc(NS(=O)(=O)c2ccc(Cl)cc2)cn1Cc1ccc(Cl)c(Cl)c1
 : -16%, nt, 1, -45, 5
- Cc1cc(NC(=O)CCC(=O)N(CC(=O)NC2CCCC2)Cc2ccc(F)cc2)no1
 : 3%, -2.7, 4, 26, 1
- O=C(COc1ccccc1F)Nc1c2c(nn1-c1ccccc1)CS(=O)(=O)C2
 : nt, 2.2, nt, nt, ?
- COc1ccc(Cn2nc(-c3ccccc3)c(N3CCCCC3)cc2=O)cc1
 : 22%, 25, -16, nt, 5

Four entries from above in another layout:
mol | Mtb H37Rv | RecA splice inh | Arbovirus anti | YopH PTP inh | Mtb betalactam
CCOC(=O)C1CCN(CC(C)(C)NS(=O)(=O)c2ccccc2)CC1 | nt | -0.8 | nt | nt | 1
COc1ccc(Cn2nc(-c3ccccc3)c(N3CCCCC3)cc2=O)cc1 | 22% | 25 | -16 | nt | 5
Cc1ccccc1S(=O)(=O)NC1OC(=O)C(Cl)=C1Cl (stereo unspecified) | 0% | -1.3 | 1 | -3 | 14
COc1cc(OC)cc(C(=O)NC(=S)Nc2ccc3oc(=O)ccc3c2)c1 | nt | -1.3 | nt | nt | 16

Continuation.
Under each structure – Mtb H37Rv, RecA splice inh, Arbovirus anti, YopH PTP inh, Mtb betalactam
- CN1CCN(CCNC(=O)c2cn(Cc3ccccc3F)nn2)CC1
 : nt, -0.3, -5, nt, -1
- COc1ccc(C(=O)NCC(=O)NCC2(N(C)C)CCCCC2)cc1OC
 : -11%, 1.0, 8, -12, 8
- O=C(NC1CCSc2ccccc21)c1cc(S(=O)(=O)N2CCOCC2)ccc1F (stereo unspecified)
 : nt, 1.1, nt, nt, -9
- COc1ccc(C(=O)CN2C(=O)c3ccccc3S2(=O)=O)cc1Br
 : nt, 0.6, nt, nt, -1
- C=CCn1c(-c2ccccc2)nc2nc3ccccc3nc21
 : 6%, 0.9, -7, -11, -7
- Cc1csc(NC(=O)CCn2c(=O)oc3ccccc32)n1
 : 1%, 1.8, 2, -25, -11
- COC(=O)c1cc(COC(=O)c2cccnc2SC)oc1C
 : -4%, 5.2, 7, 0, 10
- CCC(NC(=O)Nn1cnnc1)(C(F)(F)F)C(F)(F)F
 : 6%, 0.1, -2, 5, 1
- CCCCn1c(SCC(=O)N2CCOCC2)nc2ccccc2c1=O
 : nt, -1.8, nt, nt, 4
- COc1ccc(CCNC(=O)C2CCN(S(=O)(=O)c3c(C)noc3C)CC2)cc1OC
 : -7%, -2.9, -1, 0, -10
- O=C(CNC(=O)c1ccc(Cl)cc1)NC1CCCCC1
 : nt, 1.0, nt, nt, 2
- COc1ccc(NS(=O)(=O)c2cc(NC(=O)C3CCCO3)ccc2N2CCCC2)cc1 (stereo unspecified)
 : 4%, -0.8, -14, nt, 5
- CCc1ccccc1Nc1nc(N)nc(CSc2nnc3ccccn23)n1
 : 1%, 2.7, -4, nt, -5
- CCN(CC)S(=O)(=O)c1cccc(NC(=O)CN2C(=O)c3ccc([N+](=O)[O-])cc3C2=O)c1
 : -7%, -4.9, -10, -31, -3
- Cc1ccc(NC(=O)CSc2nnc(-c3cnccn3)n2C)cc1C
 : nt, -0.8, nt, nt, 15
- Cc1c(CN(C)C)c2c(n1Cc1ccccc1)C(=O)c1ccc(Br)cc1-2
 : 10%, -0.6, -43, -13, 99
- CC(=O)NS(=O)(=O)c1ccc(NS(=O)(=O)c2ccccc2[N+](=O)[O-])cc1
 : -10%, 1.9, nt, nt, 13
- CC(=O)N1c2ccccc2C(CBr)=CC1(C)C
 : 0%, 2.2, nt, nt, -4
- COc1ccc(CNCCc2c[nH]c3ccccc23)c(OC)c1OC
 : nt, 3.5, nt, nt, 0
- COCCN1C(=O)N[C@@H](c2cccc(C(F)(F)F)c2)C(C(=O)OC)=C1C
 : -14%, 1.1, nt, nt, 5
- COc1ccccc1NC(=O)C1=C(C)Nc2nnnn2C1c1cc(Br)ccc1OC (stereo unspecified)
 : -4%, 1.3, -7, -27, 5
- COc1ccc(NC(=O)c2ccc3[nH]c(=O)c(=O)[nH]c3c2)c(OC)c1
 : nt, -1.0, nt, nt, 5
- COC(=O)c1c(NC(NC(=O)C(C)C)C(Cl)(Cl)Cl)sc2c1CCC2 (stereo unspecified)
 : 0%, 14, 6, -20, 5
- COc1ccc(C2(C(=O)N3CCOCC3)CCCC2)cc1
 : -6%, 1.4, -3, -147, 4
- COc1cc(OC)c(NC(=O)CCc2nc(-c3ccc(C)cc3)no2)cc1Cl
 : -1%, -1.8, -3, -45, -11
- CNC(C(=O)c1ccccc1)C(OC(C)C)c1ccc(Cl)cc1 (stereo unspecified)
 : -10%, -0.4, -4, 8, -6
- CCCCOc1ccc(C2/C(=C(\O)c3ccc4c(c3)OCCO4)C(=O)C(=O)N2CCCN2CCOCC2)cc1 (stereo unspecified)
 : nt, 3.2, nt, nt, -2
- O=C(Cc1ccccc1)NC1CCSc2ccccc21 (stereo unspecified)
 : nt, 0.4, nt, nt, 1
- O=c1c2ccccc2nnn1COc1cccc(Cl)c1
 : 5%, -2.0, -2, nt, 3
- CC(c1ccncn1)N(C)Cc1nc(Cc2ccccc2F)no1 (stereo unspecified)
 : 2%, -1.8, 5, nt, 2
- COc1ccc(/C=C(/NC(=O)c2ccccc2)C(=O)N2CCOCC2)cc1OC
 : nt, 1.1, nt, nt, 2
- CCCn1c(=N)n(CC(=O)c2ccc(Cl)cc2)c2ccccc21
 : nt, 4.3, nt, nt, 9
- COc1cc(NC(=O)C2CC(=O)N(Cc3ccco3)C2)cc(OC)c1 (stereo unspecified)
 : nt, -3.1, nt, nt, 4
- O=C(NNc1ccccc1[N+](=O)[O-])NC1CCCCC1
 : -1%, 12, 1, nt, -7
- O=C(CSc1cccc[n+]1[O-])c1ccc(-c2ccccc2)cc1
 : ?, 1.2, -3, nt, 100
- CNc1ncc(C(=O)c2ccc(Cl)cc2)s1
 : 6%, 0.7, -7, -26, 8
- O=C1C(Cl)=C(N2CCCCCC2)C(=O)N1c1ccccc1Cl
 : nt, 27, nt, nt, ?
- Cc1cc(C(=O)Nc2nncs2)oc1C
 : nt, -1.4, nt, nt, -6
- Cc1[nH]n(C(N)=S)c(=O)c1N=Nc1ccc(S(=O)(=O)N2CCCCCC2)cc1
 : -7%, 4.7, -3, -2, -7
- C=C(Br)Cn1c(CCC)nc2ccccc21
 : -1%, -0.4, -1, -23, -13
- Cc1cccc(OCCn2cccc2/C=C2/C(=O)NC(=O)N(Cc3ccco3)C2=O)c1
 : 3%, 1.8, nt, nt, -5
- COc1cc(C(=O)OCCCN=C2NS(=O)(=O)c3ccccc32)cc(OC)c1OC
 : -11%, -2.4, 3, nt, 1
- CCN1c2ccccc2-c2nc3ccccc3n2C1c1ccco1 (stereo unspecified)
 : 4%, -65, -9, -4, -9
- COc1cc(NC(=O)c2ccc3c(c2)S(=O)(=O)N=C2CCCCCN23)cc(OC)c1
 : nt, -0.7, nt, nt, -6
- CNc1nc2cc([N+](=O)[O-])c([N+](=O)[O-])cc2nc1NC
 : -4%, -17, -9, 30, -3
- CCOP(=O)(OCC)c1nc(/C=C/c2ccccc2)oc1NCc1ccc(OC)cc1
 : 7%, -14, -32, -16, 69
- CN(C)C(CNc1ccc(C(F)(F)F)cn1)c1ccccc1 (stereo unspecified)
 : nt, -2.1, nt, nt, 4
- COc1cccc(/C=N/Nc2nc(Nc3ccccc3)nc(-n3nc(C)cc3C)n2)c1O
 : ?, 2.2, -8, -2, 99
- CN(c1ccc(C(=O)N2CCN(c3ccc(F)cc3)CC2)cc1)S(C)(=O)=O
 : 1%, -1.6, 7, 13, -5
- Cc1cc(C)c(NC(=S)NCCCSC2CCCCC2)c(C)c1
 : 13%, 12, -31, nt, 0
- CN(Cc1ccc(F)cc1)C(=O)c1cc(COc2ccc(-n3cncn3)cc2)on1
 : nt, -0.1, nt, nt, 12
- COc1ccc(Cl)cc1NC(=O)c1ccccc1C
 : 4%, 3.3, -11, -33, 12
- COc1cccc(-c2csc3nc[nH]c(=O)c23)c1
 : -2%, 5.5, 8, -10, 4
- O=C(CCN1C(=O)c2ccccc2C1=O)C1=NN[C@@H]2C(=O)N(c3ccc4c(c3)OCCO4)C(=O)[C@H]12
 : -5%, -2.4, nt, nt, -1
- COc1ccc(Cl)cc1N(CC(=O)NCCSc1ccccn1)S(=O)(=O)c1ccccc1
 : nt, 2.7, nt, nt, 1
- CN(C)C(=O)Oc1ccc[n+](C)c1
 : -11%, 0.6, -1, -32, -9
- O=C1C2C3C=CC(C3=C(c3ccccc3)c3ccccc3)C2C(=O)N1Cc1ccccc1 (stereo unspecified)
 : 3%, 6.1, 1, -14, -6
- Cc1cc(C)n(C2CC(=O)N(c3cc(Cl)cc(Cl)c3)C2=O)n1 (stereo unspecified)
 : -2%, 5.4, nt, nt, -4
- CCOC(=O)C1(Cc2cccc(OC)c2)CCN(Cc2cnc(C)s2)CC1
 : 2%, nt, -6, nt, -5
- O=C(NCc1ccc2c(c1)OCO2)C1CCN(S(=O)(=O)c2cccs2)CC1
 : -7%, -0.2, -5, -54, -7

The list goes on.
Under each structure – Mtb H37Rv, RecA splice inh, Arbovirus anti, YopH PTP inh, Mtb betalactam
- O=C(NC1CCCC1)C(c1ccncc1)N(C(=O)c1csnn1)C1CCCC1 (stereo unspecified)
 : -11%, -0.5, 1, nt, 2
- COc1ccc(/C=N/NC(=O)c2ccc(Cn3cc([N+](=O)[O-])cn3)o2)cc1O
 : -5%, -3.5, 4, -23, 5
- Cc1cccc(C(=O)NCc2nnc(SC(C)C(=O)Nc3nnc(C)s3)n2C)c1 (stereo unspecified)
 : nt, 2.3, nt, nt, -13
- COCCOc1cc(N)c(Cl)cc1Cl
 : -4%, 0.1, 1, nt, 4
- CCn1c(=O)n(CC(=O)N(C)Cc2ccccc2)c(=O)c2ccccc21
 : -7%, 0.0, 0, -38, 4
- Fc1ccccc1/C=C/c1ccc2ccccc2n1
 : 11%, 2.6, -27, -21, 3
- COc1c(C)cc(S(=O)(=O)NC2CC(C)(C)NC(C)(C)C2)c(C)c1C
 : -6%, -1.0, -11, -2, -4
- COC(=O)C1=C(C)NC(=S)NC1c1ccco1 (stereo unspecified)
 : -14%, -1.0, 1, nt, -3
- CCCCC1C(=O)NC(=S)NC1=O
 : 2%, -0.8, -5, -34, -1
- COc1ccc(/C=C/C(=O)NC(=S)N2CCN(c3ccccn3)CC2)cc1OC
 : 2%, -0.8, 5, nt, -5
- COc1ccccc1NC(=O)c1c(Nc2ccccc2F)sc(C(=O)Nc2cccc(Cl)c2)c1N
 : 34%, -2.2, 4, 14, 51
- Clc1cccc(CN2CCN(Cc3nc(CCc4ccccc4)no3)CC2)c1
 : -5%, 0.7, 5, nt, 3
- CN(C(=O)c1cc(S(=O)(=O)N2CCc3ccccc32)cn1C)C1CCCCC1
 : nt, 1.4, nt, nt, 3
- Cc1ccc(-c2n[nH]c(=S)n2Cc2ccccc2)cc1
 : 2%, 5.6, -25, -21, -18
- COc1ccc(CNc2nn[nH]n2)cc1OC
 : 3%, -0.4, -4, 16, 9
- O=C(CN(Cc1ccccc1)S(=O)(=O)c1ccc(Cl)cc1)NCC1CCCO1 (stereo unspecified)
 : nt, 5.3, nt, nt, 3

The list is partial (hit frequency here may not be typical).
